hNpr1 antagonist: antagonists of human natriuretic peptide receptor Npr1; 1.6% of 76,000 active; Potency, µM (series often up to 46.3 µM), without a hit: top-dose activity change, negative = inhibition, most hits filed as inhibitors; P16066; HEK293 hNpr1 GloSensor cGMP, ANP-stimulated luminescence; active = well fitted inhibition curve with a large enough effect; inconclusive = small, poorly fitted or top-dose-only effect; inactive = no such curve, though single readings can be large or run the other way;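 note: nearly all actives have a fitted effect of over 60% in size; nearly all hits also lower the signal before the agonist is added; a reference antagonist and vehicle were the controls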
Target sequence (P16066 whole entry, looked up): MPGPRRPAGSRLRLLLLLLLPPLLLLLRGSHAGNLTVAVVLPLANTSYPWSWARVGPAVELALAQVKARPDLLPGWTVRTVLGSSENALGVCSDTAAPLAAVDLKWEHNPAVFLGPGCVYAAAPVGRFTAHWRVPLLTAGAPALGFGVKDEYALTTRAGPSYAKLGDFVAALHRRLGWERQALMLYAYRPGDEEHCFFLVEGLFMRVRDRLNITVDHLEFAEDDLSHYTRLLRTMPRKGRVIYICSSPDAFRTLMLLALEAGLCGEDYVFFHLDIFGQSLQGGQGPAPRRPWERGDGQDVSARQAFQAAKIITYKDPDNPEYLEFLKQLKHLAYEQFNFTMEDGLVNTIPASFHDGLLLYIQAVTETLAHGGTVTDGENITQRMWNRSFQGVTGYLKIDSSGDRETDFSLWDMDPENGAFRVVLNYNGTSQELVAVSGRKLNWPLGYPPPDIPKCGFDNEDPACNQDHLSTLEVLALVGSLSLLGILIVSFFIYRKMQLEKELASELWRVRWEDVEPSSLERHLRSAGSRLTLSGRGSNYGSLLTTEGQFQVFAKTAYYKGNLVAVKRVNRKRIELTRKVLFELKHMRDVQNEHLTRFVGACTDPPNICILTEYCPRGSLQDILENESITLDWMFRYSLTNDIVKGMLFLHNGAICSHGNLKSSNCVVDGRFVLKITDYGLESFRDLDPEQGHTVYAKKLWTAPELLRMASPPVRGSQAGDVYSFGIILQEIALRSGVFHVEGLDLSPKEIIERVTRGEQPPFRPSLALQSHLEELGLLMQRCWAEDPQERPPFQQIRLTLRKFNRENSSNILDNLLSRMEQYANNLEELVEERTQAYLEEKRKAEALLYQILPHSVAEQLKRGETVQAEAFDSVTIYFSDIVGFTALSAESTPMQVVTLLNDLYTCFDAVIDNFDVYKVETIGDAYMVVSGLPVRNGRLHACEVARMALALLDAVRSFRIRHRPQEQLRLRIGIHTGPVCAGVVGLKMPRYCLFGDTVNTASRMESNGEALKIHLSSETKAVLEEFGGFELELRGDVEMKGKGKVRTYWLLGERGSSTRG
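Compound pre-incubated 30 min at room temperature on GloSensor-loaded HEK293 cells stably carrying hNpr1 and the pGS-40F cGMP biosensor. Stimulation uses hNppA at 0.1 nM final; luminescence is taken at baseline and 20 min post-agonist.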
Active calls of the source: *; u = inconclusive; [ ] = remark or other dose. % is set by controls: 0 for no effect and ±100 for the full control effect; potency is the fitted concentration of half-maximal effect. The list is partial, so the mix of outcomes need not match the whole.

hNpr1 antagonist | compound
3% | Cc1cccc(-n2c(=O)c3c(cc(C)n3C)n(CC(=O)Nc3c(C)cccc3C)c2=O)c1
3% | O=S(=O)(Cc1ccccc1)N1CCC2(CCCCO2)CC1
-1% | CN(C)C[C@@H]1CN(c2ccccn2)C[C@H]1NC(=O)Cc1ccsc1
u | COc1ccc(CN2CCN(c3nc4ccccc4o3)CC2CCO)cc1C (stereo not drawn)
2% | CCn1ccc2ccc(CN3CCCC(O)(CN4CCCC4)C3)cc21 (stereo not drawn)
0%[70.6 µM] | CC(C)(C)C(=O)N[C@@H](Cn1ccc(=O)[nH]c1=O)C(=O)O
1% | CCN1CC2(CCN(C(=O)c3cccc(Cn4cccn4)c3)CC2)OC1=O
3% | O=C(O)[C@H]1C[C@H](C(=O)NCc2ccncc2)CN(C(=O)C2CCCC2)C1
-7% | COCCOc1ccc2c(n1)CCN(C(=O)CC1CCCC1)C2
-11% | Cc1cc(C)cc(C(=O)N2CCc3[nH]nc(C(=O)N(C)C)c3C2)c1
-17% | Cc1ccc(F)cc1S(=O)(=O)N1CCC(OC2CCN(Cc3ccccc3)CC2)CC1
-9%[70.6 µM] | Cc1cccc(-c2ccc3c(c2)C(=O)N2CC[C@H](NC(=O)NC(C)C)C[C@H]2C(=O)N3)c1C
u | O=S(=O)(c1cccs1)N1CCC(c2nc(CCOc3ccc(F)cc3)no2)C1 (stereo not drawn)
-20%[70.6 µM] | Cn1ccnc1CN1CCOc2cc([S+](=O)([O-])Nc3ccccc3)ccc2C1
u | O=C(c1ccc2c(c1)OCO2)N1CCN(c2cc(-c3ccc(F)cc3)[nH]n2)CC1

As a short view, part of the list above.
hNpr1 antagonist | compound
-20%[70.6 µM] | Cn1ccnc1CN1CCOc2cc([S+](=O)([O-])Nc3ccccc3)ccc2C1
u | O=C(c1ccc2c(c1)OCO2)N1CCN(c2cc(-c3ccc(F)cc3)[nH]n2)CC1

(list continues)
hNpr1 antagonist | compound
3% | O=C(Nc1ccc2c(c1)OCCO2)N1CCCC(Cn2cnc3cccnc32)C1 (stereo not drawn)
-2% | O=C1c2c(nc(CNc3cccc(F)c3)n2Cc2ccccc2)NCCN1CCN1CCCCC1
-5%[70.6 µM] | O=C(NC1CC1)c1cnn2ncccc12
u | O=C(CC(c1ccccc1)c1ccc2c(c1)OCO2)N1CCSCC1 (stereo not drawn)
-1% | Cc1oc2ccn(Cc3cccc(F)c3)c(=O)c2c1C(=O)NC1CCCC1
-1% | CN1C(=O)C2(CCN(C(=O)c3ccnn3C)CC2)c2ccccc21
22%[70.6 µM] | O=C(Cc1ccc(F)cc1)N1CCN(c2nc3ncccc3o2)CC1
4% | Cc1ncsc1C1N(C2CCN(S(=O)(=O)c3ccccc3)CC2)C(=O)C12CCCC2 (stereo not drawn)
3%[122 µM] | CN(C)[C@@H]1C[C@H](CO)[C@@H](O)[C@H]1O
0% | COc1ccccc1N1CCN(C(=O)CN2C(=O)NC3(CCC(C)CC3)C2=O)CC1 (stereo not drawn)
-3% | CCOc1cc(=O)n2c(c1C(=O)Nc1ccc(Cl)cc1C)CCCC2
0%[70.6 µM] | COc1ncccc1-c1cccc(CCOc2cnc3c(ccn3CC(=O)O)c2)c1
1% | Cc1cc(C(=O)N2CCC(Cc3ccc(C(N)=O)cc3)CC2)nn1C
-6%[70.6 µM] | CC(C)Nc1ccc2nnc(-c3ccccn3)n2n1
-11%[70.6 µM] | CC(C)(Oc1nn(CCN2CCOCC2)c2ccccc12)C(=O)NCc1ccccc1
2%[70.6 µM] | COc1ccc(-c2noc(C(=O)O)c2[C@H](C)O)cc1
-6% | O=C(NCCn1cccn1)C1CCC(=O)N(C2CCCCCC2)C1 (stereo not drawn)
5% | COc1ccc(OC)c(S(=O)(=O)N2CCCCCCN(C)C(=O)CC2)c1
2% | O=C(NC(C(=O)N1CCCCC1)C1CCN(C(=O)CCc2ccccc2)CC1)c1cccs1 (stereo not drawn)
7% | COc1ccccc1Cn1c(-c2ccc(Cl)cc2)nc(C)c(CCO)c1=O
-3% | Cc1cc(CN(C)C(=O)CC(c2ccccc2)c2ccc3c(c2)OCO3)n[nH]1 (stereo not drawn)
1% | Cc1noc(C)c1C(=O)N1C[C@@H](COc2ccccc2)[C@H](C(N)=O)C1
3% | CCNC(=O)NCC1CCN(Cc2cc(Cl)cc(Cl)c2)C1 (stereo not drawn)
0%[70.6 µM] | Cc1ccc2c(c1)N1C(=O)OC[C@@H]1CCNC2
13% | COc1ccc(C2Cn3nnc(-c4noc(C5(c6ccccc6)CC5)n4)c3CO2)cc1 (stereo not drawn)
-4% | CN(C)c1cc(N2CCCC(NC(=O)c3ccco3)C2)ncn1 (stereo not drawn)
5% | COCCc1noc(CC2CCOC3(CCN(C(=O)NC(C)(C)C)CC3)C2)n1 (stereo not drawn)
0% | COc1ccc(CN2CCc3oc(C)c(C(=O)NC4CCN(C)CC4)c3C2)cc1
0%[70.6 µM] | O=C1NC2(CCN(C(=O)c3ccccc3F)C2)N=C1c1ccccn1 (stereo not drawn)
4% | COc1ccc(C(=O)N2CCC3(CC2)NC(=O)N(Cc2ccc(C)cc2)C3=O)cc1OC

Gathered by group, those above containing a thiophene ring, fused or not.
hNpr1 antagonist | compound
-1% | CN(C)C[C@@H]1CN(c2ccccn2)C[C@H]1NC(=O)Cc1ccsc1
u | O=S(=O)(c1cccs1)N1CCC(c2nc(CCOc3ccc(F)cc3)no2)C1 (stereo not drawn)
2% | O=C(NC(C(=O)N1CCCCC1)C1CCN(C(=O)CCc2ccccc2)CC1)c1cccs1 (stereo not drawn)

The list continues:
hNpr1 antagonist | compound
1% | CCNC(=O)N1CCCC1c1noc(COc2ccc(F)cc2)n1 (stereo not drawn)
u | O=C1COc2ccc(-c3ccc4c(c3)OCO4)nc2CN1Cc1ccc(F)cc1
0%[70.6 µM] | CCN(CC)C(=O)[C@@H]1CCC[C@@H](NC2CCC2)CN(C)C(=O)C1
-4% | Nc1cccn2nc(C3CCC3)nc12
23% | COc1ccccc1C(=O)N1CCC(N2CCC[S+]2(=O)[O-])CC1
1% | CSCC(=O)N1CC[C@H](NC(=O)NC2CCCCC2)[C@H]1C(=O)N1CCC[C@@H]1C(N)=O
7% | Cc1cc(C[C@@H]2COC[C@@H]2NC(=O)c2ccc3nc(C)[nH]c3c2)on1
11µM* | CN(Cc1cccnc1)c1nc2c(c(=O)[nH]1)CCN(Cc1ccc(Cl)cc1F)CC2
9% | Cc1noc(C)c1CC(=O)NC1CCc2nnc(C3CC3)n2CC1 (stereo not drawn)
-6% | Cc1nc(N2CCCCC2)n(CC(=O)Nc2ccc(F)cc2)c(=O)c1C
-3%[70.6 µM] | COC(=O)[C@@H]1Cc2ncn(C(C)C)c2CN1S(=O)(=O)c1cccc2cccnc12
-1%[70.6 µM] | CN(C)c1cccc(-c2cn(C)c(=O)n3cc(CN4CC[S+](=O)([O-])CC4)nc23)c1
-1% | COCC(=O)N1CCN(S(=O)(=O)c2ccccc2)C[C@H]1C(=O)N[C@@H](CC1CCCCC1)C(N)=O
5% | COc1ccc(OCC(=O)N2CCC3(CC2)C(=O)NCCN3C)cc1
-10% | CC(=O)N1CCC(Oc2ccc(Cl)cc2C(=O)NCCC2=CCCCC2)CC1
10µM* | COc1ccc(CN2C[C@H]3CN(Cc4ccc5c(c4)OCCO5)CCN3C2=O)cc1
0% | CC(=O)Nc1cccc(C(=O)NCCn2ccn3nc(-c4ccc(F)cc4)cc3c2=O)c1
-17% | O=S(=O)(c1ccc2c(c1)OCCO2)N1CC[C@@H]2COCCN(Cc3cccnc3)[C@@H]2C1
3% | OC[C@@H]1CN(Cc2ccncc2F)C[C@H]1c1nc(-c2cccnc2)no1
-9%[70.6 µM] | COc1cccc(-c2ncc3c(n2)OCCN(c2ccccc2)C3=O)c1OC
4% | CC(=O)NCC(=O)NCC1CCN(c2cc(-c3ccc(Cl)cc3)[nH]n2)CC1
-5% | Cc1ccc(-n2nc(-c3c(C)nc4scc(CC(=O)NCC(C)C)n4c3=O)cc2C)c(C)c1
2% | COCC(=O)Nc1ccc(-c2c(C(C)C)nn(-c3cccc(F)c3)c2OC(C)=O)cc1
-1% | CCc1c(C)nc(-c2ccc(F)cc2)n(CC(=O)Nc2ccc(OC)c(OC)c2)c1=O
0%[70.6 µM] | COc1ccccc1CNC[C@H]1O[C@@H]2C[C@@H](CC(=O)NC(C)C)O[C@@H]2[C@@H]1O
-9% | NC(=O)c1cccc(-c2ccc3c(n2)CN(Cc2ccc(C(F)(F)F)cc2)C(=O)CO3)c1
0% | COc1cc(=O)n2c(c1C(=O)Nc1cc(Cl)ccc1Cl)CCCC2
7% | CC1CCN(c2ccc(CNC(=O)CC3CCOCC3)cc2)CC1
-13%[70.6 µM] | c1cc(-c2cc(-c3ccncc3)c3cncn3c2)cc(N2CCOCC2)c1
u | N#Cc1ccc(CN2CCC3(CC2)OCCN(CCc2ccccc2)C3=O)cc1
0% | CN1CCC(N2CCC(N3C(=O)C4(CCCCC4)C3c3ccncc3)CC2)CC1 (stereo not drawn)
4% | Cc1nc(-c2cccnc2)ncc1C(=O)N1CCC2(CC1)CC(=O)N(C)C2
0% | Cc1ncsc1CN(C)C1CCc2nn(CC3CC3)c(=O)n2CC1 (stereo not drawn)
3%[70.6 µM] | COc1ccccc1C(=O)N(C)Cc1cccn1C
-3% | CCc1ccc(CNC(=O)C2Cn3cccc3C(=O)N2)cc1 (stereo not drawn)
2% | CCn1c(C2CCCN(C(=O)CN3C(=O)NC(=O)C3(C)C)C2)nn(C)c1=O (stereo not drawn)
0%[70.6 µM] | CC(=O)Nc1cccc(-c2ccc3c(n2)CN(Cc2ccccc2)C(=O)CO3)c1
5% | CNC(=O)[C@@H]1CN(C(=O)Cc2ccccc2Br)C[C@H]1CO
5%[70.6 µM] | COc1ccc(-c2ccc3ncc(Nc4ccc(F)c(Cl)c4)n3n2)cn1
3%[70.6 µM] | O=C1O[C@@H]2[C@H]3[C@@H]([C@H]1C[C@H]2O)N(c1ccccc1)C(=S)N3Cc1ccccc1
1% | COc1ccc(-c2cc(N3CCC(NC(=O)Cc4ccc(F)cc4)CC3)n[nH]2)cc1
2% | O=C(Cn1ccn2nc(-c3ccc(F)cc3)c(CO)c2c1=O)NCc1ccc(F)cc1F
-1% | COCCN1C(=O)[C@H]2CN(Cc3cccc(Cl)c3F)C[C@H]2C1=O
3% | CC(C)c1ccccc1OCC(=O)c1ccc2c(c1)N(CC(=O)NCC1CC1)C(=O)CO2
-7% | C[S+](=O)([O-])N1CCC(Cn2ccc3c(N4CCOCC4)nc(-c4cccc5[nH]ccc45)cc32)CC1
-11% | COc1cc(=O)n2c(c1C(=O)Nc1ccc(C(C)C)cc1)CCCC2
-19%[70.6 µM] | C[C@H]1[C@@H]2[C@@H](O)[C@H]([C@H](C)C(=O)N3CCCCC3)CC[C@@]2(C)CC[C@@H]1NS(C)(=O)=O
-7% | Cc1ccc(NC(=O)N2CCC(n3cnnc3C3CC3)C2)c(Cl)c1 (stereo not drawn)
8% | COc1ccc(C(=O)NC2CCN(c3cnn(C)c(=O)c3)CC2)cc1
3% | Cc1cnc(C(=O)N[C@@H]2CCC[C@@H]2C(=O)NC2CCCC2)cn1
6% | Cc1cc(C)c(NC(=O)Cn2nc3n(c2=O)CCCCC3)c(C)c1
-8% | COc1ccc(S(=O)(=O)N2CC[C@@H](CC(=O)O)[C@@H](CC3=NCCc4cc(OC)c(OC)cc43)C2)cc1
0% | O=C(CCc1nc2ccc(Cl)cc2[nH]1)N1CCc2nc3cc(-c4ccccc4)[nH]n3c(=O)c2C1
-13% | O=C1CCCCCN1CCC(=O)N1CCOC(CCCc2ccccc2)C1 (stereo not drawn)
-9% | O=C(c1ccc2c(c1)OCO2)N1CC(c2nnc(-c3ccncc3)o2)C2(CCOCC2)C1 (stereo not drawn)
4%[70.6 µM] | CN(C)c1ccc(-c2nnnn2[C@H]2CO[C@H]3[C@@H]2OC[C@H]3OCc2ccccc2)cc1
0% | CC(C)Cc1nnc(NC(=O)C2CC(=O)N(c3n[nH]c4ccccc34)C2)s1 (stereo not drawn)
-12%[70.6 µM] | COCc1cn([C@H]2CO[C@H]3[C@@H]2OC[C@H]3OC(=O)Nc2cccc(C(F)(F)F)c2)nn1
-2%[70.6 µM] | COCCOc1ncccc1-c1noc([C@@H]2CCCN2Cc2ccc(CO)o2)n1
1%[70.6 µM] | CNC(=O)C1(N2CCC[C@H]2C(=O)N2CCOCC2)CCCCC1

Some of the entries so far, as tab-separated lines:
Molecule	hNpr1 antagonist
Cc1cc(C)c(NC(=O)Cn2nc3n(c2=O)CCCCC3)c(C)c1	6%
COc1ccc(S(=O)(=O)N2CC[C@@H](CC(=O)O)[C@@H](CC3=NCCc4cc(OC)c(OC)cc43)C2)cc1	-8%
O=C(CCc1nc2ccc(Cl)cc2[nH]1)N1CCc2nc3cc(-c4ccccc4)[nH]n3c(=O)c2C1	0%
O=C1CCCCCN1CCC(=O)N1CCOC(CCCc2ccccc2)C1 (stereo not drawn)	-13%

(list continues)
hNpr1 antagonist | compound
1% | COCCOCc1nc(C2CCCN2C(=O)NC2CCCCC2)no1 (stereo not drawn)
1% | O=C(Cn1ccn2nc(-c3ccc(F)cc3)c(CO)c2c1=O)N1CCN(c2ccccc2)CC1
-1% | O=C([C@@H]1C[C@H](Oc2cccnc2)CN1S(=O)(=O)c1ccc2c(c1)CCC2)N1CCCC1
1% | O=C(CC1CCCC1)N1CCC(N2C(=O)C(O)C23CCCCC3)CC1 (stereo not drawn)
4% | CCCNC(=O)N(C1CCOCC1)C1CCN(C(=O)c2ccncc2)CC1
-1% | O=C1NCCOCCN(S(=O)(=O)c2ccc3c(c2)CCC3)[C@@H]2CCCC[C@H]12
8% | CC(C)(C)C1CCC2(CC1)NC(=O)N(CC(N)=O)C2=O (stereo not drawn)
-20% | O=C(c1cc(Cl)ccc1F)N1CCN(c2cc(-c3ccccc3)[nH]n2)CC1
